Assay outcomes: PubChem, National Center for Advancing Translational Sciences (NCATS)
LASV entry inh: Lassa virus entry inhibition | hit rate 1.2% among 300,000 | Potency, µM (titrated, usually from 37.9 µM), inactives show at the top dose activity change, negative = inhibition, actives largely listed as inhibitors | Lassa virus pseudotype entry inhibition, cell reporter; control for the full effect not named in the record; active means well fitted inhibition curve with a large enough effect; inconclusive means small, poorly fitted or top-dose-only effect, or effect the other way; inactive means flat fitted curve, though single readings scatter; tested in HEK293 cells; further: on the % scale 0 is the no-effect control and ±100 the full control effect; nearly all actives have a fitted effect of over 50% in size; luciferase read-out
Marburg entry inh: Marburg virus entry inhibition; Marburg virus pseudotyped entry inhibition, cell reporter; control for the full effect not named in the record; about a third of the inactives were read at about 46 µM; Potency, µM (titrated, usually from 37.8 µM), for the others: top-dose activity change, negative = inhibition, hits mostly inhibitors; hit rate 1.8% among 300,000; active = well fitted inhibition curve with a large enough effect; inconclusive = small, poorly fitted or top-dose-only effect, or effect the other way; inactive = flat fitted curve, though single readings scatter; tested in HEK293 cells; about a fifth of its hits are not listed in these tables; further: on the % scale 0 is the no-effect control and ±100 the full control effect; luciferase read-out
Cruzain inh noDet: blocks cruzain activity in detergent-free assay; purified cruzain, Z-FR-AMC fluorescence, no detergent; hit rate 2.3% among 200,000; Potency, µM, for the others: max response, negative = inhibition, most hits filed as inhibitors; P25779;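 further: plate controls were enzyme without inhibitor for no effect and buffer without enzyme for full effect; nearly all actives have a fitted effect of over 40% in size; top concentration of the series not given in the record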
Target sequence (P25779 123-467 limits assumed): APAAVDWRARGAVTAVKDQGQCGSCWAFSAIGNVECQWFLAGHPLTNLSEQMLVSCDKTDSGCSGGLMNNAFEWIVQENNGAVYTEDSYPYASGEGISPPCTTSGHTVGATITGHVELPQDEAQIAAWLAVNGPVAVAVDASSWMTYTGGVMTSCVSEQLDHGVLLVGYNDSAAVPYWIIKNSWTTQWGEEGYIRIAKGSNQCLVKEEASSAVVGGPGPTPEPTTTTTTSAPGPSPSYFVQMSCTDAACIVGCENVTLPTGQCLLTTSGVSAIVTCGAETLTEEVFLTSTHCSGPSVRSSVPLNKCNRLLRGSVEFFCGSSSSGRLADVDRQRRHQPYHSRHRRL
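Purified cruzain at 1.5 nM, pre-incubated 15 min with compound at room temperature in 100 mM sodium acetate pH 5.5, 5 mM DTT, 0.00005% Triton X-100. Reaction started with 2 uM Z-FR-AMC; AMC fluorescence increase over 60 s gives rate.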
RE007 growth inh: less growth of the S. pombe RE007 Vpr strain; S. pombe RE007 Vpr strain, BacTiter-Glo ATP luminescence, 24 h; control for the full effect not named in the record; Potency, µM (top dose mostly 92.2 µM), without a hit: at the highest dose activity change, negative = less growth; hit rate 0.21% among 360,000; active = well fitted falling curve with a large enough effect; inconclusive = small, poorly fitted or top-dose-only effect; inactive = no such curve, though single readings can be large or run the other way;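 further: on the % scale 0 is the no-effect control and ±100 the full control effect; nearly all actives have a fitted effect of over 50% in size; the assay follows cell death caused by Vpr and the record does not say whether a fall means rescue or toxicity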
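Fission yeast RE007 carrying one integrated HIV-1 vpr copy, seeded at OD 0.01 in PMG+AL medium with 23 nL pinned compound. Grown 24 h at 30 degrees; viability read by BacTiter-Glo luminescence after 5 min.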
SARS PLpro yeast: inhibitors of SARS-CoV papain-like protease in yeast. Potency, µM (titrated, usually from 32.9 µM), without a hit: at the top dose activity, positive = growth rescue. hit rate 0.19% among 330,000. S. cerevisiae expressing SARS-CoV PLpro, growth rescue; control for the full effect not named in the record; active means well fitted rising curve with a large enough effect; inconclusive means small, poorly fitted or top-dose-only effect; inactive means no such curve, though single readings can be large or run the other way; further: 0% is about no effect; nearly all actives have a fitted effect of over 55% in size; growth read by luminescence after 48 h
StopGo reporter: lowers the luciferase signal of an FMDV 2A StopGo reporter; Potency, µM (top dose mostly 57.9 µM), for inactives: at the highest dose signal change, negative = less light; human cells with a luciferase reporter of 2A StopGo recoding; control for the full effect not named in the record; hit rate 1.2% among 410,000; active = well fitted falling curve with a large enough effect; inconclusive = small, poorly fitted or top-dose-only effect; inactive = no such curve, though single readings can be large or run the other way; tested in HEK293T cells; further: on the % scale 0 is the no-effect control and ±100 the full control effect; nearly all actives have a fitted effect of over 45% in size; luciferase light after 4 h
Cruzain Triton: inhibitors of Trypanosoma cruzi cruzain with detergent; P25779; purified cruzain, Z-FR-AMC fluorescence, 0.01% Triton; Potency, µM, for inactives: max response, negative = inhibition, actives largely listed as inhibitors; hit rate 0.43% among 200,000; AID 1478;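 further: plate controls were neutral wells for no effect and buffer without enzyme for full effect; nearly all actives have a fitted effect of over 40% in size; top concentration of the series not given in the record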
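Enzyme 1.5 nM, Z-FR-AMC 2 uM, NaOAc 100 mM pH 5.5, DTT 5 mM, Triton X-100 0.01%; 15 min RT compound preincubation; kinetic ex360/em450, 60 s delta.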
NS1 function inh: blocks influenza NS1 protein function; S. cerevisiae slowed by influenza A NS1, growth recovery by OD600; Potency, µM (highest dose often 46.1 µM), for the others: at the top dose activity, positive = more growth; hit rate 0.4% among 270,000; AID 2326; active means well fitted rising curve with a large enough effect; inconclusive means small, poorly fitted or top-dose-only effect; inactive means no such curve, though single readings can be large or run the other way; further: nearly all actives have a fitted effect of over 50% in size
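OD600 was taken as the measure of yeast growth restored by compound in an NS1-expressing S. cerevisiae strain. Cells had been washed out of glucose medium and diluted 1:100 into galactose -URA medium, pH 6.0.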
Numbers without * were called inactive; ? = inconclusive; . = no result given; & = joins results of further samples; [ ] = remark or other dose. Unless noted, the call rests on the fitted dose curve; in most records, active means well fitted curve in the direction sought with a large enough effect; inconclusive means small, poorly fitted or top-dose-only effect, or another doubt; inactive means no such curve, though single readings can be large; an effect the other way counts as inactive or inconclusive. Potency means the concentration at half of the fitted maximal effect.

SMILES	LASV entry inh	Marburg entry inh	Cruzain inh noDet	RE007 growth inh	SARS PLpro yeast	StopGo reporter	Cruzain Triton	NS1 function inh
O=C(Nc1nnc(-c2cc(Cl)ccc2Cl)o1)c1ccc2c(c1)OCCO2	16.6%[46.1 µM]	.	16.6%	.	.	-6.0%	6.0%	.
CCOc1cc(C(=O)N(C)CC(=O)Nc2cccc(F)c2)ccc1OCC(=O)N1CCCCC1	-18.9%	-4.0%[46.1 µM]	.	-0.1%	-1.2%	-0.9%	.	.
O=C(CNC(=O)c1ccccc1)OCc1cc(=O)n2nc(C3CCCCC3)sc2n1	16.3%[46.1 µM]	.	2.4%	.	.	-16.0%	-3.5%	.
CCOC(=O)c1[nH]c2ccc(OC)cc2c1C	1.7%	11.9%&11.9%	3.5%	-1.3%	0.2%	12.4%	-2.9%	-14.2%
O=C(/C=C/c1ccccc1)N(Cc1ccc(Cl)cc1)C1CCS(=O)(=O)C1 (stereo not drawn)	-6.8%	-29.6%	.	4.5%	-0.1%	-14.6%	.	-5.6%
Cc1cc(Cc2cc(C)c(O)c(CO)c2)cc(CO)c1O	?	?	.	-5.2%	.	-26.9%	.	.
CC(=O)Nc1ccc(S(=O)(=O)N2CCCCC2c2cccnc2)cc1 (stereo not drawn)	-1.6%	8.5%	0.1%	-6.1%	7.6%	-21.4%	2.5%	2.2%
CC(=O)NCCn1c(SCC(=O)Nc2ccc(C)cc2)nc2ccccc2c1=O	?	-3.2%&-3.2%[46.1 µM]	-3.8%	-1.2%	-5.7%	-6.5%&0.0%	2.8%	.
S=C(Nc1ccc2snnc2c1)N1CCN(c2ccccn2)CC1	?	8.5%	?	-22.1%	-6.2%	8.4%	5.9%	8.0%
O=C(CSc1nnnn1-c1ccc2c(c1)OCO2)NCc1ccccc1	-15.5%	-18.5%	-0.3%	-6.5%	6.3%	-4.1%	3.3%	-10.7%
COC(=O)CN(c1c(C)cccc1C)S(C)(=O)=O	?	11.4%	8.4%	7.9%	7.3%	-20.7%	3.4%	-14.1%
CC(C)CCNC(=O)Nc1ccc2c(c1)N(C)C(=O)CS2	8.2%	6.4%	-2.5%	17.4%	.	-13.5%	2.2%	2.2%
CCOc1cccc2cc(C(=O)NC(C)c3ccccc3)c(=N)oc12 (stereo not drawn)	?	-10.2%	.	-24.8%	0.9%	?	.	1.1%
CCC(=O)N1c2ccccc2C(N(C(=O)CC)c2ccccc2)CC1C (stereo not drawn)	-23.2%	?	.	12.6%	-0.5%	-3.3%	.	-6.5%
CC(C)CCOc1ccc(C(=O)O)cc1	14.2%	4.2%	-4.2%	-2.1%	-7.2%	4.2%	4.1%	-107.8%
CN1CCN(Cc2c(C(=O)N3CCc4ccccc4C3)nc3ccc(Cl)cn23)CC1	.	.	.	8.6%	2.2%	7.6%	.	-0.5%
O=C(NCC(F)(F)F)c1nn(Cc2ccccc2)c(=O)c2ccccc12	5.4%	-3.2%[46.1 µM]	.	16.6%	.	-6.1%	.	12.9%
CN(Cc1ccccc1)S(=O)(=O)c1ccccc1Br	-12.6%[46.1 µM]	.	.	1.1%	12.6%	8.7%	.	.
COC(=O)C1CCCN1C(=O)C1CCCN1C(=O)CNC(=O)OCc1ccccc1 (stereo not drawn)	-28.4%	-19.0%[46.1 µM]	-2.3%	25.1%	9.8%	-14.5%	-1.0%	-10.7%
CCOC(=O)c1c(C)c[nH]c1C	21.6%[46.1 µM]	-11.5%[46.1 µM]	.	2.4%	-1.7%	-2.9%	.	.
Cc1ccc(NC(=O)NC(=O)CSc2nnc(-c3ccc(Cl)cc3Cl)n2N)c(C)c1	14.0%	19.3%	11.9%	.	0.5%	-8.6%	-10.7%	-6.3%
CCc1cc(C(=O)N(Cc2ccccc2)c2c(N)n(CCOC)c(=O)[nH]c2=O)sc1C	?	22.4%	.	13.5%	-6.9%	15.2%	.	.
O=C(Nc1ccc(O)c(-c2nc3ccccc3o2)c1)c1ccco1	-3.3%[46.1 µM]	0.1%[46.1 µM]	-8.5%	.	.	-12.5%	-0.9%	.
COc1ccc(/C=C(\NC(=O)c2ccc(Cl)cc2)C(=O)NCC2CCCO2)cc1OC (stereo not drawn)	.	-6.9%[46.1 µM]	.	-6.5%	0.2%	10.8%	.	-16.6%
Cc1ccc(C)c(NC(=O)CN(C)C(=O)[C@@H](NC(=O)c2ccc(C(C)(C)C)cc2)C(C)C)c1	?	?	?	-8.5%	-3.7%	?	-2.5%	-1.8%
Cc1ccc2c(c1)c1nnc(SCC(=O)Nc3ccc(N(C)C)cc3)nc1n2CC(=O)O	.	.	.	3.6%	-1.7%	4.7%	.	18.5%
CC1CCN(C(=O)CCl)CC1	16.2%	-16.6%	-5.2%	-4.0%	?	0.0%	-2.9%	-37.4%
O=C(Cn1c(=O)oc2cc(S(=O)(=O)N3CCCCCC3)ccc21)Nc1cccc(C(F)(F)F)c1	?	.	-13.4%	.	.	-16.3%	-1.1%	.
Cc1ccc(OCC(=O)Nc2sc3c(c2C#N)CC(C)(C)NC3(C)C)cc1	-22.8%	-0.9%	.	-12.9%	0.1%	-15.5%	.	-1.4%
Cc1cc(C)c2nc(NC(=O)c3ccc(OCC4CCCO4)cc3)sc2c1 (stereo not drawn)	7.1%	?	-1.6%	-6.9%	-3.3%	-22.4%	-4.9%	-2.2%
CCCN(CCC)CCCNC(=O)Cn1ncn2c(cc3sc(CC)cc32)c1=O	.	1.3%[46.1 µM]	-14.0%	.	.	0.2%	-4.6%	.
COc1ccc(C(=O)Nc2cc(OC)cc(OC)c2)cc1	-17.8%	-11.2%	-0.3%	-10.0%	-2.8%	-8.8%	3.4%	-18.0%
Cc1nn(CC(=O)NN)c(C)c1Br	.	.	.	15.6%	-0.3%	-6.3%	.	-0.8%
Cc1ccc(NC(=O)CCNS(=O)(=O)c2cc(Br)cnc2N)c(Cl)c1	-6.1%	18.3%	-6.4%	.	-18.8%	.	0.9%	-1.4%
COc1ccc2c(c1)-c1ccccc1S(=O)(=O)N2C(C)=O	1.7%	-15.7%	-11.3%	-18.0%	-2.9%	-13.6%	-0.3%	-86.1%
Cc1ccc(Cn2c(=O)n(C)c(=O)c3sccc32)cc1	-13.4%[46.1 µM]	-28.1%[46.1 µM]	.	4.4%	-2.0%	?	.	4.6%
O=C(O)C1(O)C[C@H](O)C(O)[C@@H](O)C1 (stereo partly drawn)	.	.	-3.7%	9.1%[18.4 µM]	.	-14.4%	-0.5%	.
CCC(=O)Nc1ccc(NC(=O)CSc2nnnn2-c2cccnc2)cc1C	19.4%	13.3%	2.1%	-7.5%	2.9%	.	-1.7%	12.5%
O=C(Nc1ccc(Oc2ccc(C(=O)O)c(C(=O)O)c2)cc1)c1cccs1	-1.9%	-17.1%[46.1 µM]	.	4.6%	0.5%	-5.2%	.	-1.4%
COc1ccccc1N1CCN(CC(O)c2ccc3cc[nH]c3c2)CC1 (stereo not drawn)	.	.	-18.1%	2.3%	-5.5%	-24.7%	3.6%	-5.8%
CNc1nc(SCC(=O)Nc2ccccc2)nc(N2CCOCC2)n1	0.7%	9.1%	.	-16.8%	-5.9%	-18.3%	.	5.0%
COc1c(/C=C2\SC(=Nc3ccccc3Cl)NC2=O)cccc1[N+](=O)[O-]	.	.	.	2.8%	2.5%	-11.6%	.	-0.5%
O=C(CSc1nc(-c2ccccc2)c(-c2ccccc2)[nH]1)Nc1ccc2c(c1)OCO2	?	?	-12.6%	-7.2%	1.6%	-18.2%	-6.1%	16.4%
COc1cc2c(cc1OC)-c1nc3ccccc3c(=O)n1C(C)(C)C2	-34.9%[14.3 µM]	-16.9%	?	-5.6%	-11.1%	-19.4%	-11.9%	-12.7%
Cc1cc(F)ccc1S(=O)(=O)N1CCCOC1CNC(=O)C(=O)NCc1ccco1 (stereo not drawn)	-0.3%	-24.4%	1.0%	.	-1.9%	-21.0%	-5.2%	-4.2%
CC(C)c1ccc(/C=C/C(=O)O)cc1	6.9%	7.1%[46.1 µM]	.	-8.4%	-4.8%	19.0%	.	-88.2%
CC(=O)Nc1cc(C(F)(F)F)ccc1N1CCOCC1	11.6%	1.1%	-1.7%	-5.7%	.	-7.4%	2.6%	20.6%
COc1ccc(-n2nc(C(=O)NCC(=O)NCCCN3CCOCC3)c3ccccc3c2=O)cc1Cl	4.6%	-8.8%[46.1 µM]	.	-4.1%	-2.7%	-4.2%	.	-2.3%
COc1cc(NC(=O)c2c3c(nc4ccccc24)C(=O)N(C2CCCCC2)C3)cc(OC)c1	13.7%[46.1 µM]	.	5.1%	.	.	-9.2%	-0.7%	.
O=C(c1ccccc1)N1CCN(C(=O)c2cccnc2)CC1	.	.	.	-8.4%	0.9%	-0.9%	.	5.0%
CC(C)(C)c1cc(NC(=O)COC(=O)c2ccc(O)cc2O)n(-c2ccccc2)n1	-13.4%[46.1 µM]	-23.0%	.	-4.3%	-0.8%	?	.	.
COc1ccc(CC(=O)N2CCCc3ccccc32)cc1OC	?	?	5.7%	26.9%	1.7%	-19.8%	0.2%	-4.2%
Cc1cc(Nc2sc(C(=O)c3ccc(F)cc3)c(N)c2C(=O)Nc2ccc(F)cc2)ccc1Cl	?	.	?	.	.	10µM*	-5.9%	.
COC(=O)c1cc(Br)c(=O)n(CCC2=CCCCC2)c1	-20.4%	14.1%	-12.9%	-4.9%	0.3%	-27.4%	0.1%	-25.7%
O=C(CN1C(=O)COc2ccc(Cl)cc21)Nc1cccc(F)c1	27.6%[46.1 µM]	.	5.2%	.	.	-13.8%	-3.7%	.
CCn1cnc2sc(-c3ccccc3)cc2c1=O	?	?	-5.0%	-16.4%	-10.7%	40.6%[activator]	-5.6%	-117.7%
CCOc1ccccc1C(=O)NC(C(=O)NCCc1ccccn1)C(C)C (stereo not drawn)	-3.9%	-27.8%	.	-19.2%	-10.6%	-15.0%	.	.
Cc1ccc(N(CC(=O)N2CCN(c3ccc(F)cc3)CC2)S(=O)(=O)c2c(C)noc2C)cc1	?	?	9.1%	-21.2%	7.7%	-18.6%&-26.6%	-6.3%	9.2%
O=C(Nc1cccc(Cl)c1)Nc1ccc(Cl)cn1	14.8%	5.6%	25.1µM*	-9.8%	-2.7%	3.0%	5.1%	-7.7%
